# Compound activity from PubChem.
# PrP 5UTR inh – inhibition of PrP 5' UTR reporter expression; cell-based PrP 5' UTR mRNA reporter, plate reader; inhibition, % (no concentration beside the values); hit rate 0.35% among 340,000;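 active means every replicate at 50% or more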;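 further: 0 = median of the neutral control wells; tested in H4 reporter cells; numbers are from one replicate; inactives centre near -14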
# Sa RN4220 lethal – growth inhibition of S. aureus RN4220, primary screen, OD600; 16 h; inhibition, % (test concentration not listed); hit rate 0.33% among 330,000; AID 1259311, 2017;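 active means z-score of -3 or lower and OD600 up to 0.18 on both plates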;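 further: plate controls were untreated cells for no effect and reference antibiotic for full effect; stock transfer was 100 nL into about 80 µL; one replicate is shown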
# Bead autofluor – compound fluorescence in toxin protease inhibitor counterscreen. AID 624483. compound autofluorescence counterscreen, microsphere flow cytometry; hits give high values. fluorescence intensity (concentration not given with the values). hit rate 3.1% among 360,000;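 active means at least 3 SD above the mean of all compounds, about 16000 in these data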;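 further: 100 nL of 1 mM stock went into each well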
# Sa ugtP lethal – growth inhibition of ugtP-null S. aureus, primary screen, RN4220 ugtP deletion, OD600 | growth inhibition, % (concentration not given with the values) | hit rate 0.54% among 330,000 | AID 1259309, 2017 | 16 h; some inactives read as strong as hits;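 active means z-score under -3 and OD600 up to 0.15 on both plates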;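 further: plate controls were untreated wells for no effect and antibiotic for full effect; wells of about 80 µL received 100 nL stock; the first replicate is given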
# Mtb hypoxia rep – PubChem AID 1159583. M. tuberculosis hypoxia-regulated fluorescent reporter, fluorescence. fluorescence inhibition, % (no concentration beside the values). hit rate 0.1% among 300,000;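 active means 35 to 45% if threefold the growth effect, above 45% if 1.5-fold the growth effect; inactive means the rest, general growth blockers included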;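 further: wells of about 50 µL received 100 nL stock; 0% = vehicle wells and 100% = reference inhibitor wells; whole bacteria with a GFP reporter of the hypoxia response; strong numbers were not always called active; many hits fall short of the cut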
# BJeLR lethal – MLPCN primary cell-based screen for lethality selective to Ras in HRASV12 cells; hit rate 0.17% among 300,000; BJeLR (HRASV12) viability, CellTiter-Glo ATP luminescence, 48 h; reference of the scale not given here; AID 1554, 2009; inhibition, % (no concentration beside the values);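 active means replicate mean above 50%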;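 further: 50 nL library stock added to about 25 µL; numbers are from one replicate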
# Mtb hypoxia rep growth – also measured in Mtb hypoxia rep; calls as there; growth inhibition, %; measured here: M. tuberculosis growth (absorbance);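 0% = vehicle and 100% = reference antibiotic; read after six days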
# An asterisk follows results filed as active; nt = no result given. Rows were taken by chance; any-hit rate near 3.9%.
SMILES,PrP 5UTR inh,Sa RN4220 lethal,Bead autofluor,Sa ugtP lethal,Mtb hypoxia rep,Mtb hypoxia rep growth,BJeLR lethal
NC(=O)c1ccc[n+](CC(=O)c2ccc(Cl)c(Cl)c2)c1,-28,6.1,3634,3,-4,-3,10
Cc1ccc2oc(/N=C(\N)NC(=O)C3CC3)nc2c1,-34,nt,4700,nt,nt,nt,6
Cc1ccc(S(=O)(=O)N2CCN(C(=O)c3ccccc3OCc3c(C)noc3C)CC2)cc1C,-26,6.1,4967,7,-1,1,3
CCOc1ccc(C2/C(=C(\O)c3cccc(OC)c3)C(=O)C(=O)N2c2ccccn2)cc1OC (stereo not given),-17,3.0,3531,20,12,3,-3
O=C(CCN1CCCCC1)c1ccc2c(c1)OCO2,-16,6.6,2830,7,15,12,-3
CC(C)CNC(=S)N(CCO)Cc1cc2cc3c(cc2[nH]c1=O)OCO3,-2,8.2,4018,13,-4,9,-3
C(=C\c1nccc2c1[nH]c1ccccc12)/c1ccccc1,-35,nt,4424,nt,nt,nt,27
Cc1cc(C)c(NC(=O)NC(=O)C(Cl)(Cl)Cl)c(C)c1,-17,2.4,4406,2,-1,14,-18
CCOc1ccc(N(Cc2cc3cc(OC)ccc3[nH]c2=O)C(=O)C2CCCO2)cc1 (stereo not given),7,0.6,4866,1,nt,nt,nt
COc1ccc(S(=O)(=O)N2CCCCC2)cc1C(C)C,2,-0.8,2712,2,nt,nt,nt
Clc1cc(Cl)cc(Nc2ncnc(-n3cccc3)n2)c1,-13,-15,5413,-4,15,7,6
COc1ccc(N2C(=O)CC(N3CCN(S(=O)(=O)c4cc(C)ccc4C)CC3)C2=O)cc1 (stereo not given),-57,4.6,2256,0,-1,7,-2

# Six records picked at random from the list so far, as already listed:
SMILES,PrP 5UTR inh,Sa RN4220 lethal,Bead autofluor,Sa ugtP lethal,Mtb hypoxia rep,Mtb hypoxia rep growth,BJeLR lethal
NC(=O)c1ccc[n+](CC(=O)c2ccc(Cl)c(Cl)c2)c1,-28,6.1,3634,3,-4,-3,10
Cc1cc(C)c(NC(=O)NC(=O)C(Cl)(Cl)Cl)c(C)c1,-17,2.4,4406,2,-1,14,-18
CCOc1ccc(N(Cc2cc3cc(OC)ccc3[nH]c2=O)C(=O)C2CCCO2)cc1 (stereo not given),7,0.6,4866,1,nt,nt,nt
O=C(CCN1CCCCC1)c1ccc2c(c1)OCO2,-16,6.6,2830,7,15,12,-3
COc1ccc(N2C(=O)CC(N3CCN(S(=O)(=O)c4cc(C)ccc4C)CC3)C2=O)cc1 (stereo not given),-57,4.6,2256,0,-1,7,-2
COc1ccc(S(=O)(=O)N2CCCCC2)cc1C(C)C,2,-0.8,2712,2,nt,nt,nt

# (next part)
SMILES,PrP 5UTR inh,Sa RN4220 lethal,Bead autofluor,Sa ugtP lethal,Mtb hypoxia rep,Mtb hypoxia rep growth,BJeLR lethal
O=C(Cn1nnc(-c2ccc(NC(=O)c3ccccc3F)cc2)n1)NCc1ccc(F)cc1,-39,8.6,4172,2,12,5,-2
O=S(=O)(Cc1ccc(Cl)cc1)c1ccccc1-c1nnc(-c2ccc(Cl)cc2)o1,-13,1.0,2685,-5,nt,nt,5
O=C(CCCOc1ccc(Cl)cc1Cl)NC(Cc1ccccc1)C(=O)O (stereo not given),-9,3.3,2983,-2,-6,7,nt
c1ccc(-c2nc(NCCCN3CCOCC3)c3ccccc3n2)cc1,-22,6.8,3564,-1,11,27,2
O=C1C=C(C2CCCCC2)C(=O)c2ccccc21,-21,19,3763,5,12,16,nt
CCN(CC)CCn1c2c(c(SCC(=O)Nc3cccc4ccccc34)nc1=O)CCCC2,-6,1.8,nt,2,2,3,10
CCC(C)[C@H](NC(=O)[C@@H]1Cc2ccccc2CN1)C(=O)NCc1ccc(OC)cc1 (stereo not given in full),-9,-1.4,4343,10,nt,nt,10
CC(Oc1ccccc1)C(=O)N1CCC2(CC1)Oc1ccc(F)cc1C(=O)C21CC(c2cccnc2)=NO1 (stereo not given),-17,3.9,4262,3,-4,-1,-3
Cc1nn(C(=O)CNS(=O)(=O)c2ccccc2)c(C)c1Sc1ccc(Cl)cc1,-1,1.9,2646,-15,13,2,3
CC(C)CN(C(=O)COC(=O)C1c2ccccc2Oc2ccccc21)C1CCS(=O)(=O)C1 (stereo not given),-22,-6.8,3604,-3,10,10,nt
CC(C)CNC(=O)c1cnn2c(C(F)(F)F)cc(C(F)(F)F)nc12,nt,1.8,3753,-4,-6,0,-4
O=C(CO/N=C/c1ccccc1OC(F)F)NCc1cccs1,0,nt,2456,nt,nt,nt,7
Cc1ccc(C)c(NC(=O)NNC(=O)c2ccc3ccccc3c2O)c1,-4,-2.5,nt,-12,2,2,-3
Cc1cc(C)cc(NC(=S)N2CCN(S(=O)(=O)c3ccccc3)CC2)c1,-6,3.0,5903,7,9,8,nt
COc1ccc(OC)c(CC(=O)N(C)C2CCCN(Cc3ccccc3F)C2)c1 (stereo not given),-21,4.1,4094,5,0,12,-12
Cc1cccc(Nc2nnc(SC(C)C(=O)NC3CC3)s2)c1 (stereo not given),-9,3.7,6397,11,-1,-1,nt
Cc1ccc2sc(NC(=O)c3cccc(N4C(=O)CCC4=O)c3)nc2c1C,-8,5.3,5495,6,1,7,-2
O=c1[nH]c(=O)n(Cc2ccc(F)cc2)c(O)c1C=NCc1cccnc1,15,2.2,10414,-2,15,4,1
COc1ccc(C2/C(=C(\O)c3ccc4c(c3)OCCO4)C(=O)C(=O)N2CCCN(C)C)cc1 (stereo not given),-8,1.9,3703,8,nt,nt,-6
COc1ccc(N2CCN(Cc3nc4ccccc4c(=O)[nH]3)CC2)cc1,-20,0.3,8023,10,9,9,0
Cn1c(=O)c2[nH]c(CCCCCc3nc4ccccc4[nH]3)nc2n(C)c1=O,nt,1.0,3437,-2,-6,8,nt
Cc1c(NC(=O)COC(=O)C23CC4CC(CC(O)(C4)C2)C3)c(=O)n(-c2ccccc2)n1C,-34,0.8,4293,7,8,1,2
Cc1c(Cl)cccc1NC(=O)COc1ccc(S(=O)(=O)N2CCOCC2)cc1,-5,-2.0,16522*,1,10,-1,-8
CCCCC(CC)C1OCC(CN2CCCCC2)O1 (stereo not given),-20,1.2,4297,2,5,-5,-4
CC(C)c1ccc(S(=O)(=O)c2nnn3c2nc(N2CCCCC2)c2ccccc23)cc1,-22,-0.4,2654,-20,11,7,-16
COc1cc2c(cc1OC)CN(C(=S)Nc1c(C)cccc1C)CC2,-30,2.5,2581,0,4,6,5
COC(=O)CC1C(=O)NCCN1C(=O)c1ccccc1 (stereo not given),-30,1.8,4070,1,nt,nt,17
COc1ccccc1NC(C)C(=O)N/N=C/c1cccs1 (stereo not given),-26,nt,4739,nt,nt,nt,-4
COc1ccc(NC(=O)N(C)C[C@H]2Oc3ccc(NS(=O)(=O)c4ccc(OC)cc4)cc3C(=O)N([C@H](C)CO)C[C@@H]2C)cc1,-14,-15,2909,-3,5,1,nt
CC12CCC(=O)C=C1C=CC1C2CCC2(C)C(O)CCC12 (stereo not given),-4,4.1,3938,5,6,3,nt
CCCCn1c(SCC(=O)NCC2CCCO2)nc2ccc(N3CCOCC3)cc2c1=O (stereo not given),-18,1.1,21055*,-6,6,6,0
COc1ccc(-c2noc(CCC(=O)NCCc3ccccc3)n2)cc1OC,nt,-0.3,3778,-2,-13,8,6
CC(C)[C@H](NC(=O)c1c(F)cccc1F)C(=O)OCC(=O)NC(=O)NC1CCCC1,-23,2.9,5361,-1,-5,-15,-6
O=C(CNS(=O)(=O)c1ccc(Br)cc1)N1CCN(Cc2ccccc2)CC1,-11,nt,5090,nt,nt,nt,-9
COc1ccc(CC(=O)OCC(=O)NCc2ccco2)cc1,-6,-0.7,4457,-4,-3,4,-10
COC(=O)c1cc(CNC(=O)C2CC(=O)N(c3ccc4c(c3)OCCO4)C2)ccc1OC (stereo not given),-14,-2.0,7501,-3,6,10,nt
CC(=O)Nc1ccc(Oc2cnc3ccccc3n2)cc1,-18,5.0,24151*,-8,-2,7,3
Cc1oncc1C(=O)N1CCCC(CO)(Cc2ccc(F)cc2F)C1 (stereo not given),-9,4.7,4863,9,5,0,-11
N#CC1=C(N)Oc2n[nH]c(-c3cccnc3)c2C1c1cc(F)ccc1F (stereo not given),-15,3.0,3686,-2,-1,10,-5
CCOc1ccc(CCNC(=O)CCn2nc(C)c3c(C)n(-c4ccccc4)nc3c2=O)cc1,-4,1.8,5382,4,13,3,-19
COc1ccc(NS(=O)(=O)c2cccc(C(=O)NN=Cc3ccc4c(c3)OCCO4)c2)cc1,nt,7.6,nt,10,9,0,nt
CCOC(=O)C1CCCN(C(=O)CSc2ccc(Br)cc2)C1 (stereo not given),-18,10,4481,4,13,-1,-2
Cc1cccc(N2C(=O)NC(=O)/C(=C\C=C\c3ccco3)C2=O)c1,-22,1.8,3497,5,-1,-2,39
Cc1ccc(C(=O)Cn2cc([N+](=O)[O-])nc2C)cc1,36,0.2,6482,4,10,15,-1
CCNc1nc(NCC)nc(SCC(C)=O)n1,-5,1.8,2614,2,6,-3,-1
Cc1cc(S(=O)(=O)Nc2ccc3ccccc3c2)c(C)s1,-16,5.7,19290*,1,9,-6,1
O=C(C1=C[C@@H](c2coc3ccccc3c2=O)C[C@@H](OCc2ccc(CO)cc2)O1)N1CCN(Cc2ccc3c(c2)OCO3)CC1,-7,nt,2866,nt,nt,nt,-6
COc1ccc(CNCc2cc(Cl)ccc2O)cc1,7,8.1,2968,2,24,21,nt
O=C(Nc1ccc(N2CCN(C(=O)c3ccccc3)CC2)cc1)c1cccs1,-9,1.9,3689,3,-10,3,7
Cc1ccc(C(=O)Nc2ccc3c(c2)OCCO3)c(Cl)c1,49,6.3,4130,10,0,2,1
O=C(COC(=O)c1cc([N+](=O)[O-])ccc1N1CCOCC1)Nc1cccc(F)c1,0,-1.0,4418,-6,-6,-1,11
CC(C)CCNC(=O)C1CCCN(S(=O)(=O)c2ccc(F)cc2)C1 (stereo not given),-8,-16,2887,-4,25,-16,2
COC(=O)c1c(NC(=O)COC(=O)CCc2ccc(S(=O)(=O)N3CCOCC3)cc2)sc2c1CCC2,-18,1.0,1924,6,10,12,1
C=C(C)Cn1c(SCC)nc2ccccc2c1=O,-11,0.3,3112,4,-2,8,3
COc1ccccc1CNC(=O)C1CC2Cn3c(nc4cc(C)c(C)cc43)C2N1C (stereo not given),-2,4.5,2907,3,8,8,-3
CCCN1C(=O)/C(=C/c2nc3ccccc3c(=O)[nH]2)c2cc(C)ccc21,-7,-1.2,4521,-24,-9,-1,-17
CCOc1ccc(NS(=O)(=O)c2ccc(C(=O)N(C)CCc3ccc(OC)c(OC)c3)cc2)cc1,-9,12,6182,-3,-3,-1,-1
Cc1cc(C)n2nc(SC3CCCCN(C(=O)c4ccc(F)cc4)C3=O)nc2n1 (stereo not given),-13,0.8,2786,1,nt,nt,-2
COc1cc(OC)c(S(=O)(=O)N2CCOCC2)cc1S(=O)(=O)N1CCOCC1,-1,2.9,4603,-1,-7,0,4
CC(=O)Nc1ccc(SC(C)C(=O)NC2CCCC2)cc1 (stereo not given),-19,-1.3,5648,9,4,10,-15
CCOc1ccc(-c2cccc(NC(=O)COc3ccc(Cl)cc3)c2)nn1,-2,-0.4,4503,-15,-7,0,4

# Some entries already given, limited to BJeLR lethal, Mtb hypoxia rep and Sa ugtP lethal.
structure | BJeLR lethal | Mtb hypoxia rep | Sa ugtP lethal
COC(=O)c1c(NC(=O)COC(=O)CCc2ccc(S(=O)(=O)N3CCOCC3)cc2)sc2c1CCC2 | 1 | 10 | 6
C=C(C)Cn1c(SCC)nc2ccccc2c1=O | 3 | -2 | 4
COc1ccccc1CNC(=O)C1CC2Cn3c(nc4cc(C)c(C)cc43)C2N1C (stereo not given) | -3 | 8 | 3
CCCN1C(=O)/C(=C/c2nc3ccccc3c(=O)[nH]2)c2cc(C)ccc21 | -17 | -9 | -24
